# Screening results from PubChem BioAssay.
# AID923: qHTS Assay for Allosteric/Competitive Inhibitors of Caspase-1: Spectroscopic Profiling in AFC Spectral Region | compound fluorescence, AFC spectral region (405/520 nm); almost no hit is shown here | Potency, µM (top dose mostly 57.5 µM), without a hit: at the top dose fluorescence increase, actives largely listed as activators | actives 1.1% (n = 75,000) | AID 923, 2007; active = well fitted activation curve with a large enough effect; inconclusive = small, poorly fitted or top-dose-only effect;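 note: potency is the fitted concentration of half-maximal effect; 0% is about no effect; scaled to a free AFC standard on each plate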
#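 Baseline compound fluorescence (AFC region, 405 nm ex/520 nm em) taken from the intercept of kinetic reads with 50 nM caspase-1 and 5 uM Ac-WEHD-AFC; normalized to an on-plate AFC standard curve; compounds titrated up to 57 uM.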
# A488 fluor: compound fluoresces in the A488 spectral region; max dye equivalency, M; compound autofluorescence, A488 spectral region, dye equivalency; active compounds read high; AID 591; actives 0.1% (n = 59,000); active = above 10 nM dye equivalent; inconclusive = 1 to 10 nM; inactive = 1 nM or less; about half of its hits are not listed in these tables;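 note: highest value over a series up to 38 µM; compound alone in buffer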
#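 Intrinsic compound fluorescence is measured in 100 mM Tris buffer at pH 8.0 following 15 min incubation at room temperature. Intensities at 480 nm excitation/540 nm emission are calibrated to an on-plate A488 concentration series, giving dye-equivalent concentrations.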
# Resorufin autofl: compound fluoresces in the resorufin spectral region. Compound fluorescence, resorufin region 547/598 nm, buffer; active compounds read high. max dye-equivalent concentration, M. actives 0.04% (n = 59,000). AID 588; active = above 10 nM dye equivalent; inconclusive = 1 to 10 nM; inactive = 1 nM or less; a few of its hits are not listed in these tables; note: highest value over a series up to 38 µM
#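 Compounds in 100 mM Tris, pH 8.0, incubated 15 min at room temperature, then fluorescence read at 547 nm excitation/598 nm emission. Signal converted to dye-equivalent concentration via an on-plate six-point resorufin standard curve, per compound concentration.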
# TSHR agonist: TSH receptor (human) agonism. P16473. HEK293-CNG-TSHR cells (CNG channel as cAMP sensor), membrane potential dye, cAMP. Potency, µM (doses to about 57.1 µM), for inactives: top-dose activation, most hits filed as activators. actives 0.48% (n = 73,000). AID 926; active = well fitted activation curve of enough size with the parental cells flat; inconclusive = any curve in the parental cells; inactive = parental cells flat and receptor cells flat or falling; note: potency is the fitted concentration of half-maximal effect; % of control where 0% means no effect; weak receptor curves with flat parental cells got no call and are not listed
# Target sequence (P16473 whole entry, looked up): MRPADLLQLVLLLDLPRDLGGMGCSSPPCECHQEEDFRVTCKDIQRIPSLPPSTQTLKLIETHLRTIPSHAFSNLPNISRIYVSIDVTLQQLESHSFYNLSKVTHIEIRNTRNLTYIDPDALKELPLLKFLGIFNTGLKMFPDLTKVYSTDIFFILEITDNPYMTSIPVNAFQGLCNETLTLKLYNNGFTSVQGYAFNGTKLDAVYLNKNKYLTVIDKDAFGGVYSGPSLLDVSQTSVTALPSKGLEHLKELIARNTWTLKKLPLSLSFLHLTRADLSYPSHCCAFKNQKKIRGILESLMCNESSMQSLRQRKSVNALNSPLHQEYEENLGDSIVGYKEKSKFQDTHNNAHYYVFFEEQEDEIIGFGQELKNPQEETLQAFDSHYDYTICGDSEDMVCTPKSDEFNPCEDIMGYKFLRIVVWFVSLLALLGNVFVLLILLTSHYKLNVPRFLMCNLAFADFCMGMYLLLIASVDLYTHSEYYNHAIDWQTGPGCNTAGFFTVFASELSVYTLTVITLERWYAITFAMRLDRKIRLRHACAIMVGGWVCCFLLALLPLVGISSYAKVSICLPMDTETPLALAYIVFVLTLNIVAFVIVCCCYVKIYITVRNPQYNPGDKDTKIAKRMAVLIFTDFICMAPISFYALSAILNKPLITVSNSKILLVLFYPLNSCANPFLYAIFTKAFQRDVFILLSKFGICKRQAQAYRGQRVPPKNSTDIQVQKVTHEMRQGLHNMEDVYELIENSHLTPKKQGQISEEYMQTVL
#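 cAMP rise detected as CNG-channel membrane depolarization by fluorescent dye (emission 590 nm), 30 min after compound, following 60 min dye loading containing 100 uM RO 20-1724 at room temperature. Cells: TSHR/CNG HEK 293, with parental CNG HEK 293 as control.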
# A647 autofl: A647 region autofluorescence; Compound fluorescence, A647 channel (570/671 nm), Tris buffer; max dye-equivalent concentration, M; 59,000 tested, under 10 active; AID 592; active means above 1 µM dye equivalent; inconclusive means 0.1 to 1 µM; inactive means 0.1 µM or less;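 note: values scaled relative to a standard on each plate; highest value over a series up to 38 µM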
#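 Fluorescence read (570 nm ex, 671 nm em) after 15 min RT incubation of compounds in 100 mM Tris buffer, pH 8.0; values expressed as dye-equivalent concentration against a six-point A647 standard series on each plate.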
# The depositor's hits bear a star; i = inactive; ? = inconclusive; nt = no result given; & = joins results of further samples; [ ] = remark or other dose.
# Every second line gives: A488 fluor	Resorufin autofl	AID923	A647 autofl	TSHR agonist
- O=C(CSc1nnc(-c2cccc(S(=O)(=O)N3CCCCC3)c2)o1)NCCC1=CCCCC1
→ i	i	0.3%	1.2e-08	?
- O=C(COC(=O)CCCNC(=O)c1ccc(Cl)cc1)NC1CC1
→ i	i	1.3%	2e-08	-5%
- COc1ccccc1C(=O)Nn1cnc2ccccc2c1=O
→ i	i	1.2%	1e-09	8%
- CCCc1[nH]nc2c1C(c1ccncc1)C(C#N)=C(N)O2 (centres undefined)
→ i	i	-0.7%	4.6e-09	2%
- CCOc1nc(NCc2ccco2)nc(Nc2ccc(OC)cc2)n1
→ i	i	0.3%	1e-09	2%
- Cc1cc(NC(=O)c2c(-c3ccccc3Cl)noc2C)no1
→ i	i	0.5%	1.9e-09	1%
- COc1ccc(N(CC(=O)Nc2nccs2)S(=O)(=O)c2c(C)nn(C)c2C)cc1
→ nt	nt	-3.3%	nt	7%
- COC(=O)[C@@]1(Cc2ccc(F)cc2)[C@H]2c3cc(C(=O)N(C)C)n(CC4CC4)c3C[C@H]2CN1C(=O)c1ccccc1
→ nt	nt	1.5%	nt	?
- COCCN1C(=O)C(=O)/C(=C(/O)c2cccc(OC)c2)C1c1ccco1 (centres undefined)
→ i	i	-0.8%	1e-09	0%
- Cc1nnc(SCCn2c(Br)nc3c2c(=O)n(C)c(=O)n3C)s1
→ i	i	-1.6%	1e-09	-9%
- CCN=c1scc(-c2ccc3c(c2)NC(=O)CO3)n1N=C1CCCC1
→ i	i	-2.3%	7.3e-09	-7%
- COc1ccc(OC)c(NC(=O)CSc2nnc(CNC(=O)COc3ccc(Cl)cc3)o2)c1
→ i	i	0.0%	1e-09	17%[11.4 µM]
- CSc1nnc2c(n1)OC(C)=Nc1ccccc1-2
→ i	i	-1.9%	4.5e-09	-7%
- COC(=O)c1ccc(NC(=O)CNC(=O)C2CCCCC2)cc1
→ nt	nt	0.1%	nt	1%[11.4 µM]
- O=C1NC(c2ccccc2)(C(F)(F)F)C(=O)N1Cc1cccnc1 (centres undefined)
→ i	i	-1.1%	2.1e-08	-5%
- CN(Cc1ccccc1)Cc1c(F)cccc1F
→ i	i	-0.9%	3.9e-09	10%
- CC1CCc2nc(N)c(C#N)c(-c3cccnc3)c2C1 (centres undefined)
→ nt	nt	2.2%	nt	4%
- CS(=O)(=O)N(CC(=O)N1CCOCC1)c1ccc2c3c(cccc13)CC2
→ i	i	-0.2%	1.3e-08	-8%
- COC(=O)c1sc(NC(C)=O)c(C(=O)OC)c1C
→ i	i	nt	7.3e-08	nt
- O=C(CN1CCN(c2ccccc2)CC1)Nc1ccc(-n2cnnn2)cc1
→ i	i	0.6%	8.9e-09	1%
- O=C(CN1CCCCC1)Nc1cccc(Cl)c1Cl
→ i	i	0.2%	3.6e-09	15%
- O=C(C1=C(O)C(=O)N(CCc2ccccc2)C1c1cccnc1)c1ccco1 (centres undefined)
→ i	i	0.0%	2.7e-08	5%
- O=C1CSC(c2ccccn2)N1c1ccccc1 (centres undefined)
→ i	i	0.8%	3.4e-09	0%
- O=C(CSc1nc(-c2ccccc2)cc(=O)[nH]1)NCc1ccc2c(c1)OCO2
→ i	i	-0.6%	1.5e-08	21%
- COc1ccc(N2CC(C(=O)NCCc3ccc(OC)c(OC)c3)CC2=O)cc1 (centres undefined)
→ nt	nt	-0.1%	nt	?
- Cc1ccc(OCc2nnc(SCC(=O)NC3CCCCC3)n2C)cc1
→ i	i	-0.5%	1e-09	2%
- C=CCSc1nc2c(c(=O)[nH]1)C(C(C)C)C(C#N)=C(N)O2 (centres undefined)
→ nt	nt	-1.3%	nt	?
- CCCc1nc(NCc2ccco2)c(C#N)c2c1COC(C)(C)C2
→ i	i	-1.7%	4.4e-08	6%
- CCCNS(=O)(=O)c1ccc(OCC(=O)NCc2ccco2)cc1
→ i	i	0.5%	2e-09	3%
- Cc1ccc(S(=O)(=O)/N=C(/Nc2nc(C)cc(C)n2)N2CCOCC2)cc1
→ nt	nt	1.5%	nt	-3%[11.4 µM]

# The last two entries of the part before come first, to join the parts:
# Every second line gives: A488 fluor	Resorufin autofl	AID923	A647 autofl	TSHR agonist
- CCCNS(=O)(=O)c1ccc(OCC(=O)NCc2ccco2)cc1
→ i	i	0.5%	2e-09	3%
- Cc1ccc(S(=O)(=O)/N=C(/Nc2nc(C)cc(C)n2)N2CCOCC2)cc1
→ nt	nt	1.5%	nt	-3%[11.4 µM]
- COc1ccc(-c2ccc(-c3noc(C(C)C)n3)c(OC)n2)cc1
→ i	i	12%	6.6e-09	?
- O=C(NCCCCNC(=O)c1cccnc1)c1cccnc1
→ i	i	3.7%	1e-09	-6%
- COc1ccccc1NC(=O)CSC1CC(=O)N(c2ccc3c(c2)OCO3)C1=O (centres undefined)
→ i	i	4.9%	1e-09	0%
- CCC(C)(C)n1nnnc1C(C(C)C)N1CCN(C)CC1 (centres undefined)
→ i	i	-0.7%	1e-09	6%
- CC1Cn2c(nc3sc4c(c3c2=O)CCC4)N1CCO (centres undefined)
→ i	i	3.1%	4.4e-08	-5%
- O=S(=O)(c1cccs1)N1CCc2ccccc2C1
→ i	i	-0.4%	2e-08	?
- CCn1c(SCc2ccc(C(=O)OC)o2)nc2sc3c(c2c1=O)CCCC3
→ i	i	1.5%	1.4e-09	?
- COc1ccc(C(CC(=O)O)NC(=O)Cc2ccccc2)cc1 (centres undefined)
→ i	i	0.2%	1e-09	?
- CCOC(=O)C1CCCN(C(=O)Cn2nc(CC)n3c(cc4sccc43)c2=O)C1 (centres undefined)
→ nt	nt	2.6%	nt	6%
- N#Cc1c(NC(=O)CN2CCCCC2)sc2c1CCC2
→ i	i	0.7%	1e-09	10%
- O=C(CSc1nnc(COc2ccccc2)n1Cc1ccco1)Nc1ccc2c(c1)OCCO2
→ i	i	0.8%	7.7e-08	20µM*
- COc1cc(OC)c(S(=O)(=O)NCc2ccco2)cc1S(=O)(=O)NCc1ccco1
→ i	i	-2.3%	3.1e-08	7%
- N#Cc1cc2nc(O)c(O)nc2cc1[N+](=O)[O-]
→ i	i	-1.7%&-0.2%	3.2e-09	5%&4%
- CN(Cc1cnc2nc(N)nc(N)c2n1)c1ccc(C(=O)N[C@@H](CCC(=O)O)C(=O)O)cc1
→ nt	nt	?	nt	0%
- CCCCOC(=O)c1ccc(N2C(=O)CC(N3CCN(C/C=C/c4ccccc4)CC3)C2=O)cc1 (centres undefined)
→ i	i	-1.4%	1e-09	22%
- COc1nc(NCc2cccnc2)nc(OC)n1
→ nt	nt	-1.3%	nt	3%
- Cc1cc(C)nc(N2C(=O)CC(C(=O)O)NC2=NCCc2c[nH]c3ccccc23)n1 (centres undefined)
→ i	i	-1.4%	6.7e-09	-2%
- Fc1ccc(Nc2nc(N3CCOCC3)c3ccccc3n2)cc1
→ i	i	8.0%	2.1e-09	?
- Cc1ccccc1N=C(N)Nc1ccccc1C
→ nt	nt	-2.9%	nt	?
- CC(C)(C)C1CCc2onc(C(=O)NCc3ccc(F)cc3)c2C1 (centres undefined)
→ i	i	0.3%	5.9e-09	nt
- O=C(Nc1ccc2c(c1)OCO2)NC1CCN(Cc2ccccc2)CC1
→ i	i	-1.4%	1.3e-08	-4%
- N#Cc1cc2c(nc1SCC(=O)NCc1ccc3c(c1)OCO3)CCCCC2
→ i	i	-0.4%	3.5e-09	?
- CCC(c1nnnn1CC1CCCO1)N(CCN1CCOCC1)Cc1cc2cc(C)ccc2[nH]c1=O (centres undefined)
→ i	i	16%	3.2e-08	3%
- CC[C@@]1(O)C(=O)OCc2c1cc1n(c2=O)Cc2cc3c(CN(C)C)c(O)ccc3nc2-1
→ 2.1e-08M*	i	3.2µM*	4.7e-09	5%[11.4 µM]
- Cc1ccc(O)c(NC(=O)CCC2CCCCC2)c1
→ nt	nt	0.1%	nt	-2%
- CC1CCc2cccc3c2N1c1cc(C#N)c(C#N)cc1O3 (centres undefined)
→ ?	i	11%	5e-09	20%
- Cc1[nH]c2ccc(S(N)(=O)=O)cc2c1C
→ nt	nt	0.6%	nt	-3%[11.4 µM]
- O=C(Nc1nc(-c2cccs2)cs1)c1cccc(S(=O)(=O)N2CCCCC2)c1
→ i	i	3.0%	1e-09	7%
- O=C(Cc1cccs1)Nc1nnc(-c2ccncc2)s1
→ nt	nt	0.6%	nt	-3%
- O=C(CCC(=O)NC1CCN(Cc2ccccc2)CC1)NCc1ccco1
→ i	i	1.2%	2.9e-08	-4%
- CC(=O)c1cccc(S(=O)(=O)N2CCCC(c3nc(-c4ccc(C)o4)no3)C2)c1 (centres undefined)
→ i	i	1.9%	1e-09	18%
- CCN(CC)c1nc(N2CCOCC2)c(C#N)c2c1CN(C)CC2
→ i	i	nt	1e-09	nt
- Cn1c(SCC(=O)NC2CC2)nnc1C(F)(F)F
→ i	i	-0.8%	1e-09	nt
- Cc1nc2sccn2c1-c1nc(-c2cc3ccccc3o2)cs1
→ i	i	-1.0%	1.1e-08	?
- Cc1cccc2cc(C#N)c(N3CCN(C)CC3)nc12
→ i	i	7.4%	1e-09	?
- COc1cc(/C=C\C(=O)CC(=O)/C=C\c2ccc(O)c(OC)c2)ccc1O
→ i	i	nt	1e-09	?
- O=C(c1ccc(Br)o1)N(c1ccc(Br)cc1)C1C=CS(=O)(=O)C1 (centres undefined)
→ i	i	1.5%	7.7e-09	?
- CC(=O)N1CCN(C(=O)Nc2cccc(C(F)(F)F)c2)CC1
→ i	i	-0.5%	2.3e-08	0%
- Cn1c(N2CCN(c3ccccn3)CC2)nc2c1c(=O)n(Cc1ccc(Cl)cc1)c(=O)n2C
→ i	i	nt	2e-09	nt
- COCCNC(=O)C1(C)C=CC2(CCCCC2)N1C(=O)c1ccccc1 (centres undefined)
→ nt	nt	0.4%	nt	8%
- Cc1cc(OCC(=O)C(C)(C)C)c2c(C)c(C)c(=O)oc2c1
→ nt	nt	-0.5%	nt	?
- CCOc1ccc(-c2[nH]ncc2Oc2ccccc2OC)c(O)c1
→ i	i	-2.5%	2.2e-08	8%
- O=C(c1ccco1)N1CCN(c2nc3ccccc3c(=O)n2-c2ccccc2)CC1
→ i	i	-1.6%	1e-09	10%
- O=C(OCCN1C(=O)c2ccccc2C1=O)c1ccc(S(=O)(=O)N2CCCCCC2)cc1
→ i	i	1.0%	1.9e-08	?
- CCN(CC)C1CCCCC1NS(=O)(=O)c1ccc(Cl)cc1 (centres undefined)
→ nt	nt	0.8%	nt	28%
- Cc1cccc(Cn2c(SCC(=O)Nc3ccccc3)nc3c2c(=O)[nH]c(=O)n3C)c1
→ nt	nt	4.0%	nt	1%[11.4 µM]
- Cc1ncsc1C(=O)Nc1nc2c(s1)CC(C)CC2 (centres undefined)
→ i	i	-3.8%	6.9e-09	0%
- C=CCn1c(SCC(=O)Nc2cc(C)ccc2OC)nnc1-c1ccco1
→ i	i	0.2%	1e-09	8%
- CCOc1ccc(-n2ccnc2SCC(=O)NCc2ccc3c(c2)OCO3)cc1
→ i	i	1.7%	8.4e-09	30%
- Nc1nc2c(s1)CC(c1ccccc1)CC2 (centres undefined)
→ i	i	-1.9%	5.9e-08	?
- O=C(NCc1ccc(F)cc1)c1cc(-c2cccs2)on1
→ i	i	-0.3%	3.1e-08	-1%
- COc1cc(CN2CCN(c3cccc(C)c3C)CC2)cc(Br)c1O
→ nt	nt	1.8%	nt	7%[11.4 µM]
- COC(=O)NC1CSCC1OC(=O)CCN1C(=O)c2ccccc2C1=O (centres undefined)
→ i	i	0.5%	1e-09	4%
- O=S1(=O)C=C(N2CCOCC2)c2ccccc21
→ nt	nt	1.4%	nt	6%
- O=C(Nc1cnc2ccccc2c1)C1COc2ccccc2O1 (centres undefined)
→ nt	nt	-1.2%	nt	-3%

# A portion of the library. The share of hits here may be higher or lower than overall.
